Lassa entry inh: inhibitors of Lassa virus binding or cell entry. Lassa virus pseudotype entry inhibition, cell reporter; control for the full effect not named in the record. AID 540256. actives 1.2% (n = 300,000). Potency, µM (top dose mostly 37.9 µM), for inactives: at the top dose activity change, negative = inhibition, usual class: inhibitors; active means well fitted inhibition curve with a large enough effect; inconclusive means small, poorly fitted or top-dose-only effect, or effect the other way; inactive means flat fitted curve, though single readings scatter; tested in HEK293 cells; also: % is scaled to controls: 0 for no effect and ±100 for the full control effect; nearly all actives have a fitted effect of over 50% in size; luciferase read-out
SARS PLP yeast: inhibitors of SARS-CoV papain-like protease in yeast; S. cerevisiae expressing SARS-CoV PLpro, growth rescue; control for the full effect not named in the record; Potency, µM (highest dose often 32.9 µM), without a hit: top-dose activity, positive = growth rescue; actives 0.19% (n = 330,000); active means well fitted rising curve with a large enough effect; inconclusive means small, poorly fitted or top-dose-only effect; inactive means no such curve, though single readings can be large or run the other way; also: 0% is about no effect; nearly all actives have a fitted effect of over 55% in size; growth read by luminescence after 48 h
Cruzain noTriton: blocks cruzain activity in detergent-free assay. purified cruzain, Z-FR-AMC fluorescence, no detergent. P25779. actives 2.3% (n = 200,000). AID 1476. Potency, µM, for the others: max response, negative = inhibition, most hits filed as inhibitors;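 also: plate controls were enzyme without inhibitor for no effect and buffer without enzyme for full effect; nearly all actives have a fitted effect of over 40% in size; top concentration of the series not given in the record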
Target sequence (P25779 123-467 limits assumed): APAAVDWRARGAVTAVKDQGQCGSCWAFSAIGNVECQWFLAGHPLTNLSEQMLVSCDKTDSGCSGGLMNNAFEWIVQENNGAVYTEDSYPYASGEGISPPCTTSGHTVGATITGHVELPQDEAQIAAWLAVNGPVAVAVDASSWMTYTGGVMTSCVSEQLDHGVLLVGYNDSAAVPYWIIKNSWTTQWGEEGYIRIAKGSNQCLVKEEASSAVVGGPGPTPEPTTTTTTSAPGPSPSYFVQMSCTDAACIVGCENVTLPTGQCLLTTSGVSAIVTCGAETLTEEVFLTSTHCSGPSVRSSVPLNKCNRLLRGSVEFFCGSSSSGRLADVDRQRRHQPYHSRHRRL
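Purified cruzain at 1.5 nM, pre-incubated 15 min with compound at room temperature in 100 mM sodium acetate pH 5.5, 5 mM DTT, 0.00005% Triton X-100. Reaction started with 2 uM Z-FR-AMC; AMC fluorescence increase over 60 s gives rate.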
Cruzain inh Det: cruzain (T. cruzi) inhibition with detergent. AID 1478. Potency, µM, inactives show max response, negative = inhibition, usual class: inhibitors. purified cruzain, Z-FR-AMC fluorescence, 0.01% Triton. actives 0.43% (n = 200,000). P25779;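 also: plate controls were neutral wells for no effect and buffer without enzyme for full effect; nearly all actives have a fitted effect of over 40% in size; top concentration of the series not given in the record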
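15 min RT preincubation of 1.5 nM cruzain with compound, then 2 uM Z-FR-AMC added; kinetic AMC fluorescence, 60 s delta. Triton X-100 0.01%, pH 5.5.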
RE007 growth inh: less growth of the S. pombe RE007 Vpr strain | Potency, µM (doses to about 92.2 µM), for the others: at the highest dose activity change, negative = less growth | actives 0.21% (n = 360,000) | S. pombe RE007 Vpr strain, BacTiter-Glo ATP luminescence, 24 h; control for the full effect not named in the record; active = well fitted falling curve with a large enough effect; inconclusive = small, poorly fitted or top-dose-only effect; inactive = no such curve, though single readings can be large or run the other way;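 also: % is scaled to controls: 0 for no effect and ±100 for the full control effect; nearly all actives have a fitted effect of over 50% in size; the assay follows cell death caused by Vpr and the record does not say whether a fall means rescue or toxicity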
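Fission yeast strain RE007, carrying one chromosomally integrated HIV-1 vpr copy, was seeded at OD 0.01 in PMG+AL medium with 23 nL pinned compound. After 24 h at 30 °C and 99% humidity, viability was read by BacTiter-Glo luminescence.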
2A StopGo: lowers the luciferase signal of an FMDV 2A StopGo reporter; Potency, µM (titrated, usually from 57.9 µM), for inactives: at the highest dose signal change, negative = less light; human cells with a luciferase reporter of 2A StopGo recoding; control for the full effect not named in the record; AID 1159524; actives 1.2% (n = 410,000); active = well fitted falling curve with a large enough effect; inconclusive = small, poorly fitted or top-dose-only effect; inactive = no such curve, though single readings can be large or run the other way; tested in HEK293T cells; also: % is scaled to controls: 0 for no effect and ±100 for the full control effect; nearly all actives have a fitted effect of over 45% in size; luciferase light after 4 h
NS1 inh: inhibitors of influenza NS1 protein function; S. cerevisiae slowed by influenza A NS1, growth recovery by OD600; Potency, µM (highest dose often 46.1 µM), without a hit: at the highest dose activity, positive = more growth; actives 0.4% (n = 270,000); active means well fitted rising curve with a large enough effect; inconclusive means small, poorly fitted or top-dose-only effect; inactive means no such curve, though single readings can be large or run the other way; also: nearly all actives have a fitted effect of over 50% in size
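Growth recovery, yeast-based: influenza A NS1 expressed in S. cerevisiae causes slow growth, and suppressors are detected by OD600. The parent strain without NS1 is used as positive control.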
Marburg entry inh: blocks Marburg virus binding to or entry into cells; Potency, µM (titrated, usually from 37.8 µM), for the others: top-dose activity change, negative = inhibition, most hits filed as inhibitors; actives 1.8% (n = 300,000); Marburg virus pseudotyped entry inhibition, cell reporter; control for the full effect not named in the record; about a third of the inactives were read at about 46 µM; active = well fitted inhibition curve with a large enough effect; inconclusive = small, poorly fitted or top-dose-only effect, or effect the other way; inactive = flat fitted curve, though single readings scatter; tested in HEK293 cells; about a fifth of its hits are not listed in these tables; also: % is scaled to controls: 0 for no effect and ±100 for the full control effect; luciferase read-out
* hit, by the source's call; ? = inconclusive; . = not tested or not shown; & = joins results of further samples; [ ] = remark or other dose. Unless noted, calls follow the shape of the dose curve; as a rule, active = well fitted curve in the direction sought with a large enough effect; inconclusive = small, poorly fitted or top-dose-only effect, or another doubt; inactive = no such curve, though single readings can be large; an effect the other way counts as inactive or inconclusive. Potency is read from the fitted curve at half-maximal effect.

SMILES	Lassa entry inh	SARS PLP yeast	Cruzain noTriton	Cruzain inh Det	RE007 growth inh	2A StopGo	NS1 inh	Marburg entry inh
Cc1ccc2cc(CCNC(=O)c3ccc4c(c3)OCO4)c(=O)[nH]c2c1C	.	-14%	11%	-5.9%	-2%	?	-15%	.
CCCn1c(=O)c(C(=O)NNS(=O)(=O)c2ccc(NC(=O)OC)cc2)c(O)c2ccccc21	18%[46.1 µM]	1%	.	.	7%	-2%	6%	3%[46.1 µM]
Cc1ccc(Cn2cc(C(=O)c3ccc(C)cc3)c(=O)c3ccc(C)nc32)cc1	-5%[46.1 µM]	.	-17%	-11%	.	8%	.	?
CC(C)[C@@H](CO)NS(=O)(=O)c1ccc(Br)cc1F	?	16%	.	.	4%	-12%	.	.
Cc1cc(NC(=O)Nc2ccc(Cl)c(Cl)c2)no1	11%[46.1 µM]	.	.	.	12%	15%	.	?
Cc1oc(-c2cccc(Cl)c2)nc1CSCC(=O)O	-7%[46.1 µM]	-2%	-2%&2%	1.0%&-0.5%	-7%	?	-3%	-2%
CC(=O)c1ccc(OC(=O)C(CCS(C)(=O)=O)N2C(=O)c3ccccc3C2=O)cc1 (stereo not given)	0%	-2%	0%	-3.2%	3%	2%	-8%	1%
COc1cccc(OC)c1OCCN(C)C	8%	-2%	5%	4.4%	17%	10%	-15%	14%
COc1ccc(OC)c(C(=O)CN2C(=O)NC(C)(c3ccccc3)C2=O)c1 (stereo not given)	-24%	5%	-7%	-2.3%	18%	-12%	2%	?
O=C(CCCOc1ccc(Cl)cc1Cl)NNC(=O)c1ccc(NC(=O)c2ccccc2)cc1	-16%	-11%	4µM*	-4.5%	-15%	-12%	20%	-9%
CN(C(=O)COc1ncnc2c1cnn2-c1ccccc1)C1CCCCC1	-22%	2%	.	.	7%	?	11%	1%
O=[N+]([O-])c1cc(C(F)(F)F)cc([N+](=O)[O-])c1NN=C1CCCCC1	14%	-15%	1%	-9.5%	-7%	3%	11%	22%
O=C(O)c1cccc(NS(=O)(=O)c2ccc(NC(=O)c3ccco3)cc2)c1	-13%	8%	.	.	0%	2%	.	-16%[46.1 µM]
C=CCNC(=O)CN1CCC(c2nc3ccccc3[nH]2)CC1	.	-5%	.	.	3%	11%	7%	.
COc1ccc(S(=O)(=O)N2CCOCC2)cc1NC(=O)CCNC(=O)c1ccc(Br)cc1	-30%	4%	.	.	-7%	23%	.	?
COc1ccc(S(=O)(=O)NCc2cccnc2)cc1Br	.	-1%	.	.	-1%	13%	-4%	.
COc1cc(C2c3c(oc4ccccc4c3=O)C(=O)N2Cc2ccccc2Cl)ccc1O (stereo not given)	-9%[46.1 µM]	.	4%	-0.7%	.	42%[activator]	.	-9%[46.1 µM]
O=C(Cc1ccccc1)N/N=C/c1ccccc1OCc1ccc(Cl)cc1	-25%	3%	-3%	-1.7%	27%	8%	16%	24%
CCCCN(CCCC)S(=O)(=O)c1ccc2oc(C(=O)NCc3ccccc3)c(C)c2c1	-11%[46.1 µM]	.	-10%	0.1%	.	-27%	.	.
Cc1cccc([C@@H]2[C@@H]3C(=O)N(Cc4ccccc4)C(=O)[C@@H]3[C@]3(Cc4ccc(Cl)cc4)C(=O)N(c4ccc(Br)cc4)C(=O)N23)c1	.	-5%	.	.	11%	0%	?	.
COc1cccc(N2CCN(C(=O)C3CCN(S(=O)(=O)c4ccc5c(c4)oc(=O)n5C)CC3)CC2)c1	1%[46.1 µM]	-1%	25%	-1.5%	-2%	-11%&-7%	0%	1%&1%[46.1 µM]
CC(C)C[C@H](NC(=O)Nc1cccc(C(F)(F)F)c1)C(=O)O	-1%	-19%	13%	-2.2%	0%	.	?	16%
COC(=O)CCCC1=CC2=CC(=O)C(C)(OC(=O)c3cccs3)C(=O)C2=CN1CC1CC1 (stereo not given)	.	2%	.	.	-4%	-12%	-1%	.
Cc1nc(N2CCN(C(=O)c3ccco3)CC2)c(C#N)c2c1CCCC2	-20%[46.1 µM]	-9%	.	.	0%	-30%	-1%	21%[46.1 µM]
Cc1c(NC(=O)c2c(N)n(-c3ccccc3)c3nc4ccccc4nc23)c(=O)n(-c2ccccc2)n1C	.	9%	?	-2.0%	.	.	3%	.
CCn1c(CNC(=O)c2ccco2)nnc1SCC(=O)Nc1cc(F)ccc1C	7%[46.1 µM]	2%	.	.	-14%	-8%	5%	7%[46.1 µM]
Cc1ccc2c(c1)N(CC(=O)NCCCN1CCOCC1)C(=O)c1cccnc1O2	.	-1%	.	.	13%	-8%	-1%	.
CC(=O)N1c2ccc3ccccc3c2C2C=CCC2C1c1ccc(Br)cc1 (stereo not given)	-27%	-12%	?	-14%	.	.	10%	-23%
Cc1ccc(C(=O)N/C(=C\c2cccs2)C(=O)N2CCOCC2)cc1C	.	15%	.	.	4%	-19%	7%	.
CCN(CC)S(=O)(=O)c1cc(-c2ccc(=O)n(C(C)C(=O)Nc3cccc(C#N)c3)n2)ccc1C (stereo not given)	-13%[46.1 µM]	.	?	-6.3%	.	-9%	.	-29%[46.1 µM]
O=C(CSc1cn(CC(=O)N2CCCC2)c2ccccc12)Nc1ccccc1C(F)(F)F	-1%[46.1 µM]	.	9%	-1.0%	.	7%	.	.
O=C(/C=C/c1ccco1)N(c1ccccn1)c1ccccn1	2%	-1%	.	.	2%	0%	.	19%[46.1 µM]
COc1cccc(Cn2c(CNC(=O)Cc3cccc(C)c3)nc3cccnc32)c1	-18%[46.1 µM]	.	-7%	-1.9%	.	1%	.	.
COc1ccc(NC(=O)C(C(C)C)N2Cc3ccccc3C2=O)cc1 (stereo not given)	2%[46.1 µM]	.	5%	-2.1%	.	1%	.	.
COc1ccc(OCCCC(=O)Nc2cccnc2)cc1	3%	-5%	-4%	0.9%	-3%	-9%	1%	23%
CCc1ccc(-n2c(=O)c3c(C)c(C)sc3n(CC(=O)NCC3CCCO3)c2=O)cc1 (stereo not given)	-2%[46.1 µM]	0%	.	.	1%	-13%	.	4%[46.1 µM]
CC1(C)CC(=O)C(C=Nc2ccc3[nH]ncc3c2)=C(O)C1	-5%	-5%	-10%	1.8%	-3%	.	17%	18%
O=C(OC1CCCCC1=O)c1cc(Cl)ccc1[N+](=O)[O-] (stereo not given)	-2%	5%	.	.	-9%	-7%	-6%	2%[46.1 µM]
O=C(NCC1CCCO1)c1nc2c(nnn2Cc2ccc(F)cc2)c(=O)[nH]1 (stereo not given)	?	10%	-1%	4.1%	17%	-16%	-1%	?
O=c1cccc(-c2ccc(Br)cc2)o1	10%	1%	0%	-4.2%	-21%	3%	-8%	-2%
COc1cccc(N2CCN(C(=O)CCn3nc(C)c(S(=O)(=O)N4CCCC4)c3C)CC2)c1	15%[46.1 µM]	.	?	0.2%	.	?	.	.
Cc1ccc(CC2C(=O)N(c3cc(Cl)ccn3)C(=O)C2C)cc1 (stereo not given)	7%	-1%	.	.	-18%	20%	4%	6%[14.2 µM]
C=CCNC(=S)NC1CC(C)(C)NC(C)(C)C1	-2%	5%	-2%	-1.2%	11%	-21%	15%	?
Cc1cccc(-n2c(O)c(C=Nc3ccccc3)c3ccccc3c2=O)n1	-9%	1%	.	.	-5%	?	.	-23%[46.1 µM]
COc1cc(NC(=O)C(Cc2ccccc2)NS(=O)(=O)c2cccs2)cc(OC)c1 (stereo not given)	1%[46.1 µM]	.	-28%	-2.9%	.	0%	.	.
COc1ccc(OCC(=O)Nc2ccc(-c3nc4cc(C)c(C)cc4o3)cc2)cc1	1%[46.1 µM]	.	1%	0.7%	.	59%[activator]	.	.
COc1ccc(NC(=O)CSc2nc(-c3ccccc3)nc3c2Cc2c(CO)cnc(C)c2O3)cc1Cl	-6%[46.1 µM]	.	0%	-0.4%	.	-12%	.	.
OCCC1CN(CCCc2ccccc2)CCN1CCc1ccccc1 (stereo not given)	-16%[46.1 µM]	-1%	.	.	0%	-10%	9%	?
CCC(CC)C(=O)Nc1c2c(nn1-c1ccc(C)cc1)CS(=O)(=O)C2	10%[46.1 µM]	1%	.	.	17%	-14%	1%	10%[46.1 µM]
CCOC(=O)N1CCN(C(=O)C(C)NC(=O)c2ccco2)CC1 (stereo not given)	?	28%	.	.	1%	-12%	15%	1%
O=C(CSC1=NCCN1)NC12CC3CC(CC(C3)C1)C2	-20%	5%	20%	4.4%	6%	-21%	-3%	-3%
Cn1ccnc1C1CCCCN1C(=O)c1cc(COc2ccc(F)cc2F)on1 (stereo not given)	14%	0%	.	.	-9%	0%	-3%	6%[46.1 µM]
Nc1nc(SCC(=O)Nc2ccc([N+](=O)[O-])cc2)[nH]c(=O)c1NC(=O)c1ccc(Br)o1	1%	2%	.	.	3%	-4%	7%	6%
COc1ccc(S(=O)(=O)NCc2cc(=O)n(C)c(=O)n2C)cc1F	.	0%	.	.	0%	27%	-3%	.
CN(CC(=O)Nc1c(Cl)cccc1Cl)C(=O)c1cc(S(=O)(=O)N(C)C)ccc1N1CCCC1	-8%	?	.	.	-12%	-3%	.	5%
COc1cccc(NC(=S)N(CCCN2CCC(C)CC2)Cc2cccs2)c1	2%	4%	.	.	-10%	7%	-3%	?
COC(=O)c1ccc(S(=O)(=O)N(Cc2ccccc2)Cc2ccccc2)n1C	.	0%	.	.	3%	26%	4%	.
O=C(CS(=O)(=O)c1ccc(Cl)cc1)Nc1nnc(-c2cccs2)o1	.	4%	.	.	15%	9%	-13%	.
O=C(CSc1nc2c([nH]c3ccccc32)c(=O)n1-c1ccc(Cl)cc1)N1CCOCC1	28%[46.1 µM]	.	12%	-0.3%	.	-14%	.	.
COc1cc(OC)c(OC)cc1/C=N/NC(=O)CSc1ccccc1F	.	1%	.	.	-18%	-10%	1%	.
CC(Oc1ccccc1)C(=O)Nc1ccc(OCc2cc(=O)n3ccsc3n2)cc1 (stereo not given)	0%[46.1 µM]	.	-1%	-4.6%	.	-27%	.	-19%[46.1 µM]

Random draw from the library. Share with any hit: about 4.7%.
